HSV replic up – increases HSV replication in cells. maximum fold increase. hit rate 0.005% among 220,000. HSV replication augmentation in cells, fold increase;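 active means peak rise of 1.5-fold or more in the series; tested in PC3 cells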;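 further: first round at 10 µM; read as green reporter fluorescence; hits show the peak of a series up to 25 µM; 1 = signal of infected wells without compound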
GALR2 agonist – GALR2 (human) receptor agonism; O43603; GALR2-expressing cells, agonist activation read-out; activation, %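 (tested at 5 µM)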; hit rate 0.48% among 140,000; AID 803;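 active means above mean plus 3 SD of all compounds, about 5% in these data, not always enough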;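 further: 0% = vehicle buffer wells and 100% = reference agonist at full effect; tested in CHO reporter cells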
Insulin prom inh – TRM-6 insulin promoter activity inhibition; TRM-6 cells (human fetal islet line), insulin promoter-eGFP reporter, imaging; reporter expression induced with tamoxifen; inhibition, % at 2 µM; hit rate 0.9% among 130,000; AID 1273;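 active means inhibition above the mean plus 3 SD, with well images judged a real hit on visual review, cut at about 60% in these data, passing the limit was not always enough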
PKD1 inh – inhibitors of human PKD1 kinase; inhibition, %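 (about 10 µM by stock and volumes)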; AID 797; Q15139; hit rate 0.056% among 200,000; PKD1 kinase fluorescence polarization assay;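 active means inhibition of 50% or more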;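 further: controls were vehicle for no effect and a reference inhibitor for full effect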
RGS16-Gao HTS – regulators of human RGS16-Galphao interaction; bead-based flow cytometry RGS16-Galphao binding, fluorescence; actives lie on both sides; binding response (% of control), % at 10 µM; hit rate 0.38% among 220,000; O15492+P09471;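 active means below 25% or above 175%, edge rows of some plates excepted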;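 further: Galphao activated by GDP with aluminum fluoride before binding; 100% = wells without compound and 0% = beads without RGS; some results beyond the cut were filed as inactive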
Target sequence (O15492 whole entry, looked up): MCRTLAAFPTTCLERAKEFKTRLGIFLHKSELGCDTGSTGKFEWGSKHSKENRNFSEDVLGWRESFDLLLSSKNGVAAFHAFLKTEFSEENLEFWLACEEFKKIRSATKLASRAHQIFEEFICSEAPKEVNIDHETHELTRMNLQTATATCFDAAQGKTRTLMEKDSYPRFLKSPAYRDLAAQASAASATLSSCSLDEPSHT
Target sequence (P09471 whole entry, looked up): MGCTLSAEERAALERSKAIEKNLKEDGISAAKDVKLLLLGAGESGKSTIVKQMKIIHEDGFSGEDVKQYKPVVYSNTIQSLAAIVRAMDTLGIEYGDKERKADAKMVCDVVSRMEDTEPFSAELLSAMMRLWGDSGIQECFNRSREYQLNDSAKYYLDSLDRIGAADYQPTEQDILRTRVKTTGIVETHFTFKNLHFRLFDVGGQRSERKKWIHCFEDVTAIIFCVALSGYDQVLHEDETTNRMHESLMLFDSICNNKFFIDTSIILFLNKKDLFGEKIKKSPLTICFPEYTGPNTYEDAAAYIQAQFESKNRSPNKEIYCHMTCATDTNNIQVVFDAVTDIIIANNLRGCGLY
Insulin prom inh cell count – further read-out of Insulin prom inh, marked with its call; normalized cell count, %; measured here: cell count, toxicity; reference of the scale not given here;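 cells exposed to compound for 48 h; stained nuclei by imaging scaled within each plate; lower means fewer cells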
HSV replic up primary fold – recorded beside HSV replic up, whose call it bears; fold increase; compound at 10 µM; measured here: primary screen fold increase 10 uM; tested in PC3 cells;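 GFP signal in the first replicate; 1 = infected wells without compound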
* hit, by the source's call; i = inactive; nt = not tested or not shown.

SMILES	HSV replic up	HSV replic up primary fold	GALR2 agonist	Insulin prom inh	Insulin prom inh cell count	PKD1 inh	RGS16-Gao HTS
CCC1CCCCN1CCn1c(=S)[nH]c2cc(OC)c(OC)cc2c1=O (stereo unspecified)	i	0.89	-0.4	0	105	-14	100
CCOc1ccc(NC(=O)c2ccc(CSc3nnc(C)s3)cc2)cc1	i	1	nt	nt	nt	-3	103
O=C(CN1CCC(C(=O)c2cccc(Cl)c2)CC1)Nc1ccc(C(=O)O)cc1	i	0.94	nt	nt	nt	0	150
CC(=O)Nc1c(O)nc(SCC(=O)Nc2nnc(CC(C)C)s2)[nH]c1=O	i	0.92	-1.5	22	92	-10	96
O=C(Nc1nc(=S)ss1)c1ccc(Cl)cc1Cl	i	0.94	-0.2	64	51	-7	94
Cc1ncc(N=Nc2ccccc2)c(-c2ccccc2)n1	i	1	-3.2	21	103	-3	101
Cc1ccccc1-c1nc(CS(=O)CC(=O)NCCCN(C)c2ccccc2)c(C)o1 (stereo unspecified)	i	0.95	-0.2	-54	166	-10	97
Cc1ccc(NC(=O)c2cccc(OCc3c(C)noc3C)c2)cc1	i	0.92	-0.9	-39	180	-4	103
Cc1ccc(CC(=O)NCCS(=O)c2ccc(C)cc2)cc1 (stereo unspecified)	i	0.93	nt	-15	97	5	102
Cc1ccc(/C=C/C(=O)N(Cc2cccs2)C2CCS(=O)(=O)C2)cc1 (stereo unspecified)	i	1.2	nt	nt	nt	nt	103
CCC(CC)C(=O)Nc1cccc(C(=O)NCc2ccco2)c1	i	0.97	-2.0	-35	55	-7	96
O=C(CN1CCN(c2ccccc2)CC1)N1CCN(c2ccccc2)CC1	i	0.91	0.1	nt	nt	-12	102
COc1ccccc1C(c1nnnn1C(C)(C)C)N1CCN(C(=O)c2ccco2)CC1 (stereo unspecified)	i	1	-1.2	19	77	-1	91
CSc1ccccc1NC(=O)c1onc(C)c1Cl	i	1	-2.8	nt	nt	11	103
COc1ccc(Br)cc1C(=O)NCc1cccnc1	i	0.91	-2.2	-107	75	-1	99
CCc1cccc(CC)c1NC(=O)CO/N=C(\C)c1cccs1	i	1	-1.8	0	68	7	122
COc1cccc(OC)c1C(=O)OCC(=O)Nc1ccc(OC(F)(F)F)cc1	i	0.87	-3.3	nt	nt	1	98
CC(=O)N1CCN(CC(=O)Nc2c(Cl)cc(Cl)cc2Cl)CC1	i	0.97	-0.2	-35	135	4	102
CC(C)CC(NC(=O)C(CC(C)C)NC(=O)OC(C)(C)C)C(N)=O (stereo unspecified)	i	0.93	-1.4	14	124	-5	105
O=C(/C=C/c1ccco1)NC(=S)Nc1ccc(Cl)cn1	i	0.96	-1.9	nt	nt	1	101
COc1cccc(NC(=O)CN2CCSc3ccccc32)c1	i	1	nt	nt	nt	-4	116
CCOc1ccc(-n2c(SCC(=O)Nc3ccccc3CC)nc3n[nH]c(C)c3c2=N)cc1	i	0.83	nt	7	174	-10	112
CCC(CC)C(=O)NCc1cccnc1	i	0.87	nt	nt	nt	10	97
O=C(CCc1ccc(S(=O)(=O)N2CCOCC2)cc1)NCCc1ccccn1	i	0.97	-1.6	-3	41	-10	104
O=C(NC(=S)Nc1ccccc1Cl)c1csnn1	i	0.99	-1.1	24	102	-19	116
Further structures follow:
SMILES	HSV replic up	HSV replic up primary fold	GALR2 agonist	Insulin prom inh	Insulin prom inh cell count	PKD1 inh	RGS16-Gao HTS
Clc1ccc(OCc2cn3cccnc3n2)c2ncccc12	i	1	-3.1	-21	125	-1	106
O=C(Nc1cccc(C(=O)N2CCOCC2)c1)c1cccnc1	i	0.78	-1.7	52	85	-4	98
COc1cc(NC(=O)c2c(F)cccc2F)nc(OC)n1	i	0.99	-2.0	-23	66	5	99
C=CCN1C(=O)/C(=C2/Sc3ccccc3N2CCCS(=O)(=O)O)SC1=S	i	0.89	-2.0	-43	136	-5	102
Cc1ccc(NC(=O)NCc2ccc3c(c2)OCO3)cc1C	i	1	nt	nt	nt	7	100
CC(=O)N1CCN(C(=S)NC(=O)c2ccc(S(=O)(=O)N3CCOCC3)cc2)CC1	i	1	-3.1	15	115	9	37
CC(C)(C)n1cnc2cc(NS(=O)(=O)c3ccc(Br)cc3)ccc21	i	0.9	-0.4	-6	117	-5	99
Cc1ccc(-c2csc(N3N=C(c4ccccc4)/C(=C\c4ccc(N(C)C)cc4)C3=O)n2)cc1	nt	nt	-3.1	43	93	-6	79
CCn1cc([N+](=O)[O-])c(C(=O)Nc2nc3ccc(OC)cc3s2)n1	i	1	nt	0	98	-4	104
CCCC(c1nnnn1CCc1ccccc1)N1CCN(C2CCCC2)CC1 (stereo unspecified)	i	1	-3.0	-84	116	3	100
O=S1(=O)CCC(S(=O)(=O)N2CCCCCC2)C1 (stereo unspecified)	i	1	0.5	45	71	0	103
CCc1c(C)[nH]c2ccc(OC)cc2c1=S	i	0.86	nt	30	151	0	106
O=C(N/N=C/CCc1ccccc1)c1ccc(CN2c3cccc4cccc(c34)S2(=O)=O)cc1	i	1.1	0.2	-11	124	0	98
Cc1ccc(CNCc2ccccc2Cl)cc1	i	1	-2.7	6	173	-2	98
CCCCCCNc1nc(-c2ccc(OC)cc2)c(CCC(=O)O)s1	i	0.97	0.0	nt	nt	-1	99
CCOC(=O)C1=NOC(CN(c2ccccc2)S(=O)(=O)c2ccc(Cl)cc2)C1 (stereo unspecified)	nt	nt	nt	54	122	-4	100
Cc1ccc2c(c1)CCCN2C(=O)C1CCCO1 (stereo unspecified)	i	0.93	-1.6	-256	92	5	100
CCn1c(=O)cc(OCC(=O)Nc2cc(C)ccn2)c2ccccc21	i	0.68	-1.5	-6	68	1	80
O=C1NCN(c2ccccc2)C12CCN(CCCC(c1ccc(F)cc1)c1ccc(F)cc1)CC2	i	0.66	nt	-7	109	-5	105
CCOc1ccc(C2CC(c3ccc(F)cc3)Nc3nc(N)nn32)cc1 (stereo unspecified)	i	1.4	-0.2	nt	nt	5	98
CCOC(=O)C1CCN(Cc2cccc(OC)c2)CC1	i	1.3	-1.7	11	125	-5	93
COc1cccc(CN2C(=O)C3(C(C#N)=C(N)OC4=C3C(=O)CCC4)c3ccccc32)c1 (stereo unspecified)	i	0.87	-1.6	-175	153	2	104
CCc1ccc(/C=C2\Oc3cc(OC(=O)N4CCOCC4)ccc3C2=O)cc1	i	0.96	0.0	7	120	-5	54
CC(Sc1nnc(COc2ccc([N+](=O)[O-])cc2)n1C)C(=O)O (stereo unspecified)	i	0.96	nt	nt	nt	-2	99
O=C(c1ccco1)[C@@H]1[C@@H]2C(=O)N(c3ccc(F)cc3)C(=O)[C@@H]2[C@H]2C=Cc3ccccc3N21	i	1.3	-1.6	nt	nt	-8	133
Further results follow:
SMILES	HSV replic up	HSV replic up primary fold	GALR2 agonist	Insulin prom inh	Insulin prom inh cell count	PKD1 inh	RGS16-Gao HTS
COc1cc2nc(CN3CCN(S(=O)(=O)c4ccc(Cl)cc4)CC3)[nH]c(=O)c2cc1OC	i	0.99	nt	0	131	-2	105
Cc1ncc(C[n+]2csc(CCOC(=O)C34CC5CC(CC(C5)C3)C4)c2C)c(N)n1	i	1	nt	-7	110	-1	106
CN1C(=O)NC(c2ccc(O)cc2)C(C(=O)c2cccs2)C1(O)C(F)(F)F (stereo unspecified)	i	0.99	1.0	-133	86	5	108
Cc1cc(C)nc(N/N=C/c2ccccc2Cl)n1	i	0.79	nt	nt	nt	nt	90
CCN1CCN(C(=O)c2cnn3c(C(F)F)cc(-c4ccc(C)cc4)nc23)CC1	i	0.79	-1.3	13	131	-10	98
Cc1nc2ccccc2cc1C(=O)Nc1ccccc1Cl	i	0.88	nt	-40	92	-1	150
CC1CCC(NS(=O)(=O)c2ccc3c(c2)n(C)c(=O)c(=O)n3C)CC1 (stereo unspecified)	i	0.87	-2.9	nt	nt	9	102
Cc1cc(C)c2[nH]c(=O)c(CN(Cc3cccnc3)C(=S)NCCCN(C)C)cc2c1	i	0.88	nt	nt	nt	-11	93
CN1CCc2c(sc3c2C(=O)NC(c2cccc(OC(=O)c4cccs4)c2)N3)C1 (stereo unspecified)	nt	nt	-0.2	-71	110	9	106
COC(=O)CSC1=C(C#N)C(=O)NC(c2ccccc2)S1 (stereo unspecified)	i	0.98	-1.9	-11	109	7	106
COc1cc(C2c3c([nH]c(=O)[nH]c3=O)Nc3ccc4ccccc4c32)cc(OC)c1OC (stereo unspecified)	i	0.89	nt	20	86	5	103
O=C(NC(=S)Nc1cccc(-c2ccc(CO)o2)c1)c1cccs1	i	1	nt	-68	82	-3	100
Cc1cccc(Nc2nc(CC(=O)O)cs2)c1	i	0.96	nt	nt	nt	-6	99
CCS(=O)(=O)c1ccc(O)c(N2C(=O)C3C4C=CC(C4)C3C2=O)c1 (stereo unspecified)	i	0.69	-2.3	-15	90	0	103
O=C(c1c(Cl)nc2sccn12)N1CCCc2ccccc21	i	1.1	-1.6	nt	nt	-7	103
O=C1CCC(=O)N1c1cccc(-c2nc3ccccc3o2)c1	i	1.4	nt	nt	nt	-5	101
COC(=O)c1ccc(NC(=O)c2ccc3c(c2)OCO3)cc1	i	1	-2.2	-30	81	1	106
Cc1ccc(C2=NN(C(=S)Nc3ccccc3)C(c3ccco3)C2)cc1 (stereo unspecified)	i	1.1	-1.6	3	144	0	108
COc1ccc(C(=O)c2coc3ccc(O)c(CN4CCOCC4)c23)cc1	i	0.87	-1.9	nt	nt	-2	99
CC(=O)c1cccc(NC(=O)NCCc2c[nH]c3ccccc23)c1	i	1	nt	nt	nt	nt	88
COc1cc(/C=C(\C#N)C(=O)NCC2CCCO2)ccc1OCC(=O)O (stereo unspecified)	i	0.96	nt	nt	nt	4	85
O=C(COc1ccccc1)NC1CCN(Cc2ccccc2)CC1	i	0.91	-3.2	0	85	-4	103
Cc1[nH]n(-c2ccccc2)c(=O)c1S(=O)(=O)c1ccccc1	i	0.91	-3.0	-16	115	15	104
COc1ccc(CNC(=O)CN2C(=O)C3C4C=CC(C4)C3C2=O)cc1 (stereo unspecified)	i	0.99	nt	-7	66	0	102
O=C(C1=C[C@@H](c2ccc(Br)cc2)C[C@@H](OCCCCO)O1)N1CCOCC1	i	1.1	nt	nt	nt	-5	98
CC(CN1CCCCC1)OC(=O)c1ccccc1Cl (stereo unspecified)	i	0.95	-1.8	nt	nt	15	101
COc1cccc(C2NC(CC(C)C)(C(=O)O)C3C(=O)N(Cc4ccccc4)C(=O)C23)c1O (stereo unspecified)	i	0.8	-2.8	nt	nt	4	101

Screening data: PubChem, several laboratories
